# Screening results from PubChem.
# Mtb growth = M. tuberculosis H37Rv growth inhibitors, H37Rv strain (AID 1626); M. tuberculosis H37Rv growth inhibition; higher % means a stronger effect; 220,000 tested, 0.95% active; inhibition, % at 10 µM; hits with a dose series show IC50 in µM;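 active means confirmed in a dose series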;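 further: bacteria incubated seven days before Alamar blue readout; 0% = bacteria only wells and 100% = bacteria with antibiotic wells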
# Mtb bLac sens = beta-lactam sensitization of Mtb H37Rv; inhibition, % at 25 µM; 330,000 tested, 0.27% active; M. tuberculosis H37Rv growth with meropenem, percent inhibition; hits of this screen are not shown here; AID 434955;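 active means about 74% or more and at least 40 points above the plate without the antibiotic, then above 30% in a dose series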;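 further: growth measured after seven days incubation then overnight dye step; 0% = bacteria only wells and 100% = bacteria with antibiotic; twin plates without the antibiotic show which effects depend on it; some results filed as inactive read as strong as hits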
# YopH inh = inhibitors of Yersinia enterocolitica YopH tyrosine phosphatase | inhibition, %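 (about 10 µM by stock and volumes)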 | 140,000 tested, 0.16% active | fluorescence Ex485/Em525 | AID 898;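 active means inhibition of 50% or more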;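 further: controls were vehicle for no effect and minimum signal wells for full effect; inactives centre near -20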
# RecA intein inh = Mtb RecA intein splicing inhibition; P9WHJ3; cell-free RecA intein splicing, fluorescence; inhibition, %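 (about 9 µM by stock and volumes)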; 290,000 tested, 0.75% active; in the data active means inhibition above about 30%;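 further: 0% = vehicle wells and 100% = reference inhibitor control wells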
# Target sequence (P9WHJ3 whole entry, looked up): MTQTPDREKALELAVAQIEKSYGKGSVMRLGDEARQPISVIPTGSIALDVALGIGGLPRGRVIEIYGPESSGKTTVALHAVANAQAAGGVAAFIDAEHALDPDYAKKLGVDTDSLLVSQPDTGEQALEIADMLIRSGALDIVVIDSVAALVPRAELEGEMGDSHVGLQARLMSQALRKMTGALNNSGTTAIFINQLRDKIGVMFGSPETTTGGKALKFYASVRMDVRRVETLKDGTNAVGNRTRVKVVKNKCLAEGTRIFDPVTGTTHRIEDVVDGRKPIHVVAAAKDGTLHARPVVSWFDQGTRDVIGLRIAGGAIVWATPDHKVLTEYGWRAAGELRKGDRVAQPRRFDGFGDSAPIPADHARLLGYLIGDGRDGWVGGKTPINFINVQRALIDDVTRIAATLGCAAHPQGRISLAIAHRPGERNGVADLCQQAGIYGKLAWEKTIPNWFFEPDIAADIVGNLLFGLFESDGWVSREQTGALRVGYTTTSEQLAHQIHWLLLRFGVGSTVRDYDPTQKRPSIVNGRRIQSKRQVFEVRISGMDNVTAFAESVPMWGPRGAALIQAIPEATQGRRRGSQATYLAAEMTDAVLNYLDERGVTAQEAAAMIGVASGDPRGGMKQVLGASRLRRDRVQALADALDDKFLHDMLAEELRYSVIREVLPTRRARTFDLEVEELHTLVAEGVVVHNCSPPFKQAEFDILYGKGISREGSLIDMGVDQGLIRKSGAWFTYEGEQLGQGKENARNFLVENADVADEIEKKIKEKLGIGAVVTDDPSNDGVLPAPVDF
# Arbovirus anti = blocks arbovirus infection; arbovirus infection cell-based antiviral screen; inhibition, % at 10 µM; 200,000 tested, 0.37% active; AID 1251;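 active means inhibition from about 30%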;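 further: bluetongue infection of BSR cells; cell survival read as ATP light after 72 h; 0% = infected wells without compound and 100% = uninfected wells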
# Arbovirus anti repeat = second read-out of Arbovirus anti, no call of its own (marks repeat the call); inhibition, %; measured here: 10K subset replicate screen; many hits read low in the repeat;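 first of two repeat runs on a subset; 0% = infected and 100% = uninfected wells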
# * marks the source's active call; other numbers are inactive results; . = no result given. These rows are one share of the data; the hit share may differ from the screen's.
SMILES,Mtb growth,Mtb bLac sens,YopH inh,RecA intein inh,Arbovirus anti,others
COc1ccc(C(C(=O)NCc2ccccc2)N(C(=O)c2snc(C(N)=O)c2N)c2ccccc2OC)cc1 (stereo not given),.,-1,.,-4.8,.,
N#Cc1ccccc1OCC(O)CS(=O)(=O)c1ccccc1 (stereo not given),2%,0,.,3.5,1,
Cn1cncc1C(=O)c1ccccc1,-7%,-5,.,0.5,.,
COCCCn1c(C)nc2c(c1=O)c1nc3ccccc3nc1n2CCc1ccccc1,11%,3,-22,-11,-22,
O=C(CCn1c(=O)c2cccn2c2ccc(F)cc21)NCCc1ccccc1,.,9,.,2.0,.,
O=C(N/N=C/c1cc(Br)c(O)c(Br)c1O)c1ccc2c(c1)OCCO2,.,6,.,19,.,
Cc1ccc(S(=O)(=O)Nc2c(NC3CCCCC3)c3ccccc3oc2=O)c(C)c1,.,12,.,-5.2,.,
N#Cc1ccc(S(=O)(=O)N2CCC(N3CCCCC3)CC2)cc1,.,1,.,-2.9,.,
CCOC(=O)c1c(C)c(C(=O)NCc2cccnc2)c(C)n1CC,-8%,2,6,1.0,4,
Cc1ccc2nc(NCCCO)nc(-c3ccccc3)c2c1,8%,11,-14,-248,-23,
CC(OC(=O)C1CCN(S(=O)(=O)c2ccc(Cl)cc2)CC1)C(=O)N1CCc2ccccc21 (stereo not given),1%,-31,-10,3.9,4,
NC(=O)c1cc(S(=O)(=O)N2CCN(c3cccc(Cl)c3)CC2)cs1,.,-11,.,-5.6,.,
Cc1c([N+](=O)[O-])cc(C(=O)Nc2ccc(Cc3ccncc3)cc2)cc1[N+](=O)[O-],-1%,4,-29,4.9,-6,
O=C(CSC(=S)N1CCCC1)c1ccccc1,.,-7,.,2.2,.,
CCCN(CCC)S(=O)(=O)c1ccc(C(=O)NCc2ccco2)cc1,.,0,.,2.7,.,
CCCn1c(CN2CCN(C(=O)OCC)CC2)nc2cc(NC(=O)C(C)C)ccc21,.,5,.,-1.4,.,
COc1ccc2c3c([nH]c2c1)C1CC2C(CC(O)C(OC)C2C(=O)O)CN1CC3 (stereo not given),5%,-11,.,-31,.,
O=C(CN1C(=O)CSC1=O)NC1CCCCC1,-3%,-8,-11,1.4,1,
Cc1ccc(Oc2ccc(-c3nc(N)nc(N)n3)cc2)cc1,-11%,4,12,.,11,
Cc1ccc(Sc2cc(C(F)(F)F)nc(N(C)C)n2)cc1,3%,-6,-31,.,-5,
Cc1cccc(-c2cc(C(=O)Nc3ccc4c(c3)OCCO4)c3ccccc3n2)c1,.,24,-9,2.9,1,
CCOC(=O)C1=C2c3ccc4ccccc4c3CC(C)(C)N2C(=O)C1=O,2%,3,-13,-2.4,11,
CCC(NC(=S)NC1CCCCC1)c1ccc(C)cc1 (stereo not given),.,5,.,7.6,.,
O=C1NC(=O)N(Cc2ccco2)C(=O)/C1=C/c1ccc(-c2cccc([N+](=O)[O-])c2)o1,-2%,1,30,7.2,-2,
CCOC(=O)C1=C(C)Nc2nc(SCC)[nH]c(=O)c2C1c1ccncc1 (stereo not given),-4%,-17,-39,-0.1,1,
CC1=C(C(=O)OCc2ccccc2)C(c2ccc(C(F)(F)F)cc2)NC(=O)N1CCCCCC(=O)O (stereo not given),-6%,3,-16,2.8,26,
CCC(C)NC(=O)C1CCC(=O)N1Cc1ccc(C)cc1 (stereo not given),-1%,-3,-35,-2.3,5,
COc1cccc(Nc2nnc(SCC3CCCCO3)s2)c1 (stereo not given),3%,-4,.,3.8,-10,
Cc1ccsc1-c1nc(CN2CCN(C)C(=O)[C@@H]2C)c(C)o1,-2%,-14,.,-1.4,-5,
O=[N+]([O-])c1cccc(CN2CCN(Cc3ccc(Cl)cc3)CC2)c1,9%,-1,.,1.2,6,
NC(=O)c1cc(-c2ccccc2)nc(N2CCOCC2)n1,-4%,-4,-24,9.3,5,
CN1CCN(c2ccccc2NC(=O)c2ccc3c(c2)OCCO3)CC1,.,-9,.,0.7,.,
Cc1c(S(=O)(=O)NC2CCCCC2)c(=O)n(C)c(=O)n1C,.,-6,.,13,.,
N#Cc1nc(Cc2cccc3ccccc23)oc1NCC1CCCO1 (stereo not given),-1%,0,-15,4.9,-5,
O=C(Cn1ncnn1)OCc1ccccc1Cl,-6%,-11,-8,-1.7,12,
O=C1CCC([N+](=O)[O-])C(c2ccc(-c3ccccc3)cc2)N1 (stereo not given),.,-9,.,0.9,.,
C/C(=N\NC(=O)c1ccc(Br)cc1)C1C(=O)c2ccccc2C1=O,6%,2,-4,5.5,1,
Cc1cccc(N(C(=O)Cn2nnc3ccccc32)C(C(=O)NC(C)(C)C)c2ccsc2)c1 (stereo not given),4%,0,-38,-0.6,6,
S=c1[nH]nc(-c2c[nH]c3ccccc23)o1,.,0,.,1.8,.,
COCCN(CCOC)c1ncnc2c1cnn2-c1ccccc1,-5%,2,.,2.5,0,Arbovirus anti repeat=6
Cc1ccc(NCCC(=O)c2ccc(Cl)cc2)cc1C,74%,100,-48,0.9,2,
COc1cc(-c2noc(CCC(N)=O)n2)cc(OC)c1OC,-11%,.,-3,-4.1,-4,
Oc1oc(-c2ccccc2)nc1C=Nc1ccccc1,1%,6,-130,3.4,-2,
Cc1n[nH]c(=O)nc1Nc1ccc(O)cc1,-7%,-7,-8,-2.3,4,
Cc1cc(OCC(=O)Nc2ccccc2N2CCCC2)ccc1C(C)C,.,5,.,18,.,
Cc1cc(C)cc(-n2c(C)cc(/C=N/NC(=O)CSc3ncccn3)c2C)c1,2%,2,-20,2.8,-13,
CSc1ccccc1-c1nnc(NC(=O)Cc2ccccc2)o1,.,80,.,-1.1,.,
CCN(CC)CCCNC(=O)N[C@@H](Cc1ccccc1)C(=O)O,-1%,-7,-38,0.6,11,

# By substructure, the compounds so far with fluorine (3)
SMILES,Mtb growth,Mtb bLac sens,YopH inh,RecA intein inh,Arbovirus anti,others
O=C(CCn1c(=O)c2cccn2c2ccc(F)cc21)NCCc1ccccc1,.,9,.,2.0,.,
Cc1ccc(Sc2cc(C(F)(F)F)nc(N(C)C)n2)cc1,3%,-6,-31,.,-5,
CC1=C(C(=O)OCc2ccccc2)C(c2ccc(C(F)(F)F)cc2)NC(=O)N1CCCCCC(=O)O (stereo not given),-6%,3,-16,2.8,26,

# Arranged by heavy-atom count (falling): 12 of the compounds above.
SMILES,Mtb growth,Mtb bLac sens,YopH inh,RecA intein inh,Arbovirus anti,others
Cc1cccc(N(C(=O)Cn2nnc3ccccc32)C(C(=O)NC(C)(C)C)c2ccsc2)c1 (stereo not given),4%,0,-38,-0.6,6,
Cc1cc(C)cc(-n2c(C)cc(/C=N/NC(=O)CSc3ncccn3)c2C)c1,2%,2,-20,2.8,-13,
Cc1cc(OCC(=O)Nc2ccccc2N2CCCC2)ccc1C(C)C,.,5,.,18,.,
N#Cc1nc(Cc2cccc3ccccc23)oc1NCC1CCCO1 (stereo not given),-1%,0,-15,4.9,-5,
C/C(=N\NC(=O)c1ccc(Br)cc1)C1C(=O)c2ccccc2C1=O,6%,2,-4,5.5,1,
CCN(CC)CCCNC(=O)N[C@@H](Cc1ccccc1)C(=O)O,-1%,-7,-38,0.6,11,
COc1cc(-c2noc(CCC(N)=O)n2)cc(OC)c1OC,-11%,.,-3,-4.1,-4,
NC(=O)c1cc(-c2ccccc2)nc(N2CCOCC2)n1,-4%,-4,-24,9.3,5,
Cc1ccc(NCCC(=O)c2ccc(Cl)cc2)cc1C,74%,100,-48,0.9,2,
O=C(Cn1ncnn1)OCc1ccccc1Cl,-6%,-11,-8,-1.7,12,
Cc1n[nH]c(=O)nc1Nc1ccc(O)cc1,-7%,-7,-8,-2.3,4,
S=c1[nH]nc(-c2c[nH]c3ccccc23)o1,.,0,.,1.8,.,

# Further structures follow:
SMILES,Mtb growth,Mtb bLac sens,YopH inh,RecA intein inh,Arbovirus anti,others
CCOC(=O)c1oc2ccccc2c1NC(=O)c1ccc2c(c1)OCO2,-4%,62,-38,-2.7,2,
COc1ccc(CCNC(=O)Cn2cnc3sc(C)c(-c4ccc(F)cc4)c3c2=O)cc1OC,0%,2,.,.,3,
CCOc1ccc(S(=O)(=O)Nc2ccc(C(=O)NCC3CCCO3)cc2)cc1 (stereo not given),.,0,.,-2.8,.,
O=c1c2ccccc2nnn1Cc1ccc2ccccc2c1,-2%,-1,.,-0.9,-2,
CCCC(=O)Nc1ccc(N2CCOCC2)cc1,-7%,-3,-27,-3.4,5,
O=C(c1ccco1)N1CCC(c2nc(-c3ccccc3Cl)no2)CC1,-2%,-5,-25,2.0,9,
COc1nc(Cl)cn(-c2ccc(C)cc2)c1=O,4%,1,-2,1.7,7,
COc1ccc2nc(C)cc(NCc3cccc(C(F)(F)F)c3)c2c1,.,99,.,0.6,.,
Cc1c(-c2ccc(F)cc2)nc(N)c(C#N)c1-c1cccnc1,6%,-4,.,1.9,.,
CCC(=O)Nc1ccc(NC(=O)c2ccccn2)cn1,5%,1,-32,-0.8,0,
CCOC(=O)C1=C(N)OC2=C(C(=O)CC(C)(C)C2)C1c1cccs1 (stereo not given),-10%,-4,-8,1.8,-2,
CN(C)CCCNc1cc(Cl)c(S(=O)(=O)N2CCCCC2)cc1C(=O)O,.,.,-25,.,3,
C/C(=N\Nc1nc2c(s1)CCCC2)c1ccc(Cl)cc1,46%,97,-11,17,-22,
COc1ccc(Cl)cc1C(=O)C1CCCN(CCO)C1 (stereo not given),4%,-4,.,-3.8,0,
Cc1cccc(C(=O)Nc2ccc(N3CCN(c4ccc(C(F)(F)F)cn4)CC3)nc2)c1,4%,6,.,0.4,.,
CC1CC[C@@]2(OC1)O[C@H]1CC3[C@@H]4C[C@@H](O)[C@@]5(O)C[C@@H](O)[C@H](O)C[C@]5(C)[C@H]4CC[C@]3(C)[C@H]1[C@@H]2C (stereo not given in full),.,-6,.,-0.9,.,
CC(C)c1[nH]nc2c1C(c1ccco1)C(C#N)=C(N)O2 (stereo not given),-6%,3,.,64*,-7,
O=C(c1ccc(Cn2c(=S)[nH]c3ccc(N4CCOCC4)cc3c2=O)cc1)N1CCN(c2ccc(F)cc2)CC1,0%,26,.,-5.9,4,
CSCC[C@H](NC(=O)c1cc([N+](=O)[O-])ccc1Cl)c1nc2ccccc2[nH]1,4%,0,-43,2.5,-2,
COc1ccc(N(CC(=O)N2CCN(Cc3ccccc3)CC2)S(C)(=O)=O)c(OC)c1,.,4,.,0.2,.,
CCCC(C)NC(=S)Nc1cc(C)cc(C)c1 (stereo not given),6%,-6,.,3.0,6,
N#Cc1cnn2cc(CCN3CCOCC3)c(-c3ccc(F)cc3)nc12,56%,-13,.,-0.2,5,
O=C(N/N=C/c1cc([N+](=O)[O-])ccc1O)C(O)(c1ccccc1)c1ccccc1,.,6,.,4.0,.,
N#CC1CCCc2c1[nH]c1ccc([N+](=O)[O-])cc21 (stereo not given),2%,-4,.,-1.0,.,
Cc1c(NC(=O)Nc2ccc(C#N)cc2)c(=O)n(-c2ccccc2)n1C,.,-5,.,1.0,.,
O=C1Nc2ccc(Br)cc2C1Cc1ccccc1F (stereo not given),.,4,.,4.1,.,
c1ccc(C2c3[nH]c4ccccc4c3CCN2Cc2cccn2-c2ccccn2)nc1 (stereo not given),10%,0,.,1.9,.,
O=C(O)C(Cc1cc2ccccc2[nH]1)N1C(=O)C2CC=C(Cl)CC2C1=O (stereo not given),-2%,-5,-7,0.7,2,
CCCCN(C(=O)c1cc(CC)c(C)s1)c1c(N)n(CCC)c(=O)[nH]c1=O,.,4,.,2.6,.,
O=C(Nc1ccc2nc(-c3cccs3)[nH]c2c1)c1cccs1,-10%,-4,-29,0.0,-28,
CC1=[N+]([O-])C(C)(C)CC(C)(C)c2ccccc21,5%,-9,-36,1.5,0,
CC(Oc1ccc(Cl)cc1)C(=O)NCC1CCCO1 (stereo not given),.,-3,.,-1.1,.,
CCCCn1c(N)c(N(CC)C(=O)c2ccc3c(c2)S(=O)(=O)c2ccccc2C3=O)c(=O)[nH]c1=O,-6%,-6,-16,3.0,19,
O=C(CSc1ncnc2c1cnn2-c1cccc(Cl)c1)NCC1CCCO1 (stereo not given),.,-4,.,2.6,.,
COc1cccc(Cn2cc(N)cn2)c1,-2%,-2,.,23,-21,
c1ccc(-c2ccccc2OCc2nnc3n2CCC3)cc1,0%,4,.,-0.3,-1,
OCC1(Cc2ccccc2)CCCN(Cc2c[nH]c3ccccc23)C1 (stereo not given),-3%,-8,.,1.2,-25,
COC(=O)c1ccc(Nc2cc(C)nc3ccccc23)cc1,-1%,1,.,0.5,.,
